# HCMV NEC inh = inhibitors of HCMV UL50-UL53 interaction, biochemical, HTRF; actives 0.15% (n = 190,000); normalized percent inhibition; HCMV UL50-UL53 nuclear egress complex (human cytomegalovirus); inhibition, % (no concentration beside the values);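 active = both replicates at 50% or more, plus weaker picks with an unusually low signal ratio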;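 also: stock transfer was 100 nL into about 20 µL; 0% = negative control wells and 100% = wells with untagged competitor protein; inactives centre near -12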
# GIV-Gai inh = inhibitors of GIV peptide binding to Galpha-i3, primary screen, biochemical, fluorescence polarization, FITC-GIV GBA peptide, rat Galphai3. percent of control (FP), % (no concentration beside the values). Guanine nucleotide-binding protein G(i) subunit alpha-3 (Rattus norvegicus), P08753. 90 min; hits give low values; scaled: aluminum fluoride 0%, vehicle 100%. actives 0.42% (n = 210,000);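 active = replicate mean at 85% of control or lower, very high polarization wells dropped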;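 also: wells of about 15 µL received 100 nL stock; the first replicate is given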
# Target sequence (P08753 whole entry, looked up): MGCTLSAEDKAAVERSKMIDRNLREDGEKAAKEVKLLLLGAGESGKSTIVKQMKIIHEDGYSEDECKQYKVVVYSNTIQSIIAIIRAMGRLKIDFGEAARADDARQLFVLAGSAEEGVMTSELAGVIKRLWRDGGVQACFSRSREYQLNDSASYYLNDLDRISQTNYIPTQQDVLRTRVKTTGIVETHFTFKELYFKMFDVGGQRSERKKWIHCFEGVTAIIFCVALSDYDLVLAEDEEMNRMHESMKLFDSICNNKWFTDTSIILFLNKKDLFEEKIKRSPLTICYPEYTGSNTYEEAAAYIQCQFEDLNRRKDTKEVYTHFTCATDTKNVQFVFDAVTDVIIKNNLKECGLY
# Sa growth 42C = S. aureus growth inhibition at 42 and 30 °C, primary screen, LtaS inhibitor project, RN4220, two temperatures. OD600, 20 h, 42 °C; hits give low values. relative growth, % (concentration not given with the values). actives 0.53% (n = 170,000);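 active = growth at 42 °C up to 50% and 20 or more points under that at 30 °C, or under 10% at both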;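 also: 300 nL library stock went into each well; scaled to the means of positive and negative controls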
# Sa growth 42C second temp = second read-out of Sa growth 42C, no call of its own (marks repeat the call); relative growth, %; measured here: growth at 30 °C;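 optical density after 20 h as mean of two plates; 100% = untreated growth and lower means inhibition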
# An asterisk follows results filed as active; / = no result given; & = joins results of further samples. Compounds as they come (roughly 0.83% active in at least one column).
structure	Sa growth 42C second temp	Sa growth 42C	HCMV NEC inh	GIV-Gai inh
CCc1cc(=O)oc2cc(C)c3c(c12)OC(c1ccc(OC)c(O)c1)CC3=O (stereo unspecified)	/	/	8	102
CCCCN1C(=O)/C(=C/N(C(C)=O)c2ccccc2)SC1=S	92	95	/	97
CC(C)C(=O)Nc1ccc(CN2CCCCC2)cc1	103	103	4	107
O=S(=O)(c1cccc(F)c1)N1CCN(CC(O)COC(c2ccccc2)c2ccccc2)CC1 (stereo unspecified)	79	115	-16	/
O=C(CSc1ncccn1)NC1CCCCCC1	96	110	14	/
c1ccc(CNc2nc3ccccc3c3nc(-c4ccccc4)nn23)cc1	85	102	-16	105
Cc1cccc(C)c1Nc1c(-c2cc(Br)ccc2O)nc2nc[nH]n12	38	57	-11	112&96
CC(=O)Oc1cc(OC(C)=O)c2c3c(c(=O)oc2c1)CCCC3	45	105	-29	94
Cc1ccc(Cn2cc(S(=O)(=O)c3cccc(C)c3)c(=O)c3cc(F)c(N4CCOCC4)cc32)cc1	96	118	/	104
O=C1c2ccncc2C(=O)N1Cc1ccccc1F	/	/	-34	109
c1ccc2c(c1)CN1CCCC1=N2	76	110	-12	95
Nc1ccn([C@@H]2O[C@H](CO)[C@@H](O)C2O)c(=O)n1 (stereo partly specified)	87&89	96&96	-24	103
COc1cccc(NC(C)C(=O)N2CC(C)OC(C)C2)c1 (stereo unspecified)	89	90	-11	/
CCOCC(O)CSc1ccccc1 (stereo unspecified)	89	122	-13	106
COc1ccc(C(=O)c2cn(Cc3ccc(F)cc3)c3ccc(C)cc3c2=O)cc1	75	80	-12	98
CCc1cc2cc(C(=O)Nc3ccccc3)sc2s1	97	105	-24	108
O=C(O)CC12OC3C4C5CC(C6C5C3C61)C42 (stereo unspecified)	96	103	-4	101
Cn1c(-c2ccccc2)c(C(=O)COC(=O)c2ccc(Br)o2)c2ccccc21	94	105	9	/
CC(=O)Nc1ccc2nc(SCc3ccccc3)sc2c1	86	89	-13	100
O=C(CN1CCc2ccccc2C1)N(C1CCCCC1)C1CCS(=O)(=O)C1 (stereo unspecified)	96	97	-24	/

# Next section.
structure	Sa growth 42C second temp	Sa growth 42C	HCMV NEC inh	GIV-Gai inh
O=C(Nc1ccc2oc(-c3cccc4c(Br)cccc34)nc2c1)c1cccc(Cl)c1	100	106	-2	103
Nc1nccnc1C(=O)OCC(=O)c1csc(N2CCCCC2)n1	69	81	-101	/
COC(=O)c1ccccc1-n1c(N)c(C#N)c(N)c(C#N)c1=S	84	88	/	94
Cc1ccc(Sc2ncccc2C(=O)N2CCCCC2C(N)=O)cc1 (stereo unspecified)	95	93	-1	/
CC(=O)c1ccc(NC(=O)COc2ccccc2-c2nc(-c3ccccc3)no2)cc1	88	94	-12	97
COC(=O)Nc1sc(C)cc1C(=O)OC	108	112	-7	109
O=C(Cn1cc(C(=O)C2CC2)c2ccccc21)NC1CC1	83	105	-8	104
Cc1ccc(C(=O)N2CCSC2=S)cc1	94	96	-10	96
COc1ccc(NC(=O)Cn2c(=O)oc3cc(Cl)ccc32)c(OC)c1	87	122	/	100
Cc1ccc(-c2nn(C(C)C(=O)N3CCc4ccccc43)c(=O)c3c2CCCC3)cc1 (stereo unspecified)	/	/	15	108
CN1CCC(N(C)S(=O)(=O)c2ccc(N)cc2)CC1	94	87	-6	/
Cc1ccc(-c2nsc(NC(=O)c3oc4cc(C)c(Cl)cc4c3C)n2)cc1	95	102	-3	96
Cc1ccc(NC(=O)c2nnc(CSCC(=O)NCc3ccccn3)s2)cc1	/	/	-26	101
Cn1c2ccccc2c2nnc(N3CCN(Cc4ccccc4)CC3)nc21	78	93	-36	101
CCN(CC)C(=O)c1ccc2c(c1)N(Cc1c(F)cccc1Cl)C(=O)c1ccccc1S2	80	78	8	107
CNC(=O)CO/N=C/c1ccc(N(C)C)cc1	96	86	-2	/
O=C(Nc1noc2ccccc12)c1cccc(Cl)c1Cl	92	123	-15	104
CC(C)[C@H](NC(=O)NCCc1c[nH]c2ccccc12)C(=O)O	/	/	-8	101
O=C(NCc1ccc(F)cc1)C1CCC(=O)N1CCc1ccccc1 (stereo unspecified)	97	105	-25	103
O=C(O)C1CCCN1C(=O)OCC1c2ccccc2-c2ccccc21 (stereo unspecified)	88	101	-14	99

# Later entries
structure	Sa growth 42C second temp	Sa growth 42C	HCMV NEC inh	GIV-Gai inh
CC1CCc2c(sc3[nH]c(=O)n4nc(-c5cccc(S(=O)(=O)N6CCOCC6)c5)nc4c23)C1 (stereo unspecified)	97	94	-16	/
CCc1ccc(NS(=O)(=O)c2cc(-c3cnc(C4CC4)o3)ccc2C)cc1	48	106	/	100
CC(C)(C)S(=O)(=O)c1ccccc1C(=O)O	81	94	-21	99
COc1cc(C(=O)OC2CC3CCC2(C)C3(C)C)ccc1O (stereo unspecified)	58	68	-26	105
CCOC(=O)c1oc2ccc(Br)cc2c1COC(=O)CNC(=O)c1cccc(OC)c1	59	87	-39	/
O=C(N/N=C/c1ccc(C(F)(F)F)cc1)c1ccccn1	92	97	-42	106
O=C(c1ccccc1)c1cc2ccccc2o1	62	67	-72	/
CCc1ccc(-c2cn3c(n2)sc2cc(C(=O)NC4CCCCC4)ccc23)cc1	99	112	/	107
Cc1ccc(-c2nc3cc(Cl)ccc3o2)cc1NC(=O)COc1ccc(F)cc1	87	97	-18	93
COc1ccccc1CN1CC(C(=O)NCc2cccnc2)CC1=O (stereo unspecified)	84	94	5	107
CCc1ccc(NS(=O)(=O)c2ccc3oc(=O)c4ncn(CC)c4c3c2)cc1	68	99	-3	107
CCCCOC(=O)Cn1nnc2sc(-c3ccccc3)cc2c1=O	90	103	-18	119
Cc1csc(NC(=O)c2ccccc2)n1	79&85	131&92	-10&-9	/
COc1ccc(NC(=O)C(=S)N2CCCCC2)cc1	108	103	6	101
CCc1ccc(CN(Cc2ccco2)c2cnc(S(C)(=O)=O)nc2C(=O)Nc2c(C)cccc2C)cc1	83	100	-26	95
N#Cc1ccccc1S(=O)(=O)Nc1cccc(-c2nnc3n2CCCCC3)c1	86	87	-19	/
CCC(CC)n1c(COc2ccccc2Cl)nnc1SC(C)C#N (stereo unspecified)	80	92	-8	/
CCCn1c(=O)c2ccccc2n2c(=O)n(CC(=O)c3cccc(Cl)c3)nc12	/	/	-41	100
Cn1cc(Cl)c(C(=O)OCC(=O)NCc2ccccc2)n1	94	125	-4	104
COc1cccc(/C=C2\CCCCC2=O)c1	77	72	-9	/

# Carrying on.
structure	Sa growth 42C second temp	Sa growth 42C	HCMV NEC inh	GIV-Gai inh
COC(=O)C1=CN(C2CC2)C=C(C(=O)OC)C1c1ccc(Cl)cc1	91	100	2	106
COc1ccc(-c2noc(Cn3c(=O)n(-c4cc(F)ccc4F)c(=O)c4ccccc43)n2)cc1OC	/	/	-22	105
CCc1ccc2nc(N3CCC(C(=O)NC4CCCCC4)CC3)sc2c1	92	92	/	102
CC1=CCC2C(=O)N(c3cccc(C(=O)NCc4ccccc4)c3)C(=O)C2C1 (stereo unspecified)	81	94	/	99
CN(Cc1nc2ccccc2c(=O)n1CC(N)=O)C1CCCCC1	87	83	-16	/
CCOC(=O)C1CCCN(S(=O)(=O)c2ccc3c(c2)CCN3C(=O)CC)C1 (stereo unspecified)	88	108	-12	103
CN(C)/C=C1\C=C(c2ccccc2)OC1=O	75	91	-59	102
Cc1ccc2nc3c(cc(C(=O)NC4CCCCC4)c(=N)n3C(C)C)c(=O)n2c1	91	104	-39	108
COc1cccc(-c2csc(-c3nnn(-c4ccc(C)cc4)c3N)n2)c1	/	/	-16	114
CC1=C(C(=O)OCCc2ccccc2)C(c2coc3ccc(Cl)cc3c2=O)C2=C(CC(C)(C)CC2=O)N1 (stereo unspecified)	/	/	-14	100
Cc1ccccc1CSc1nc2c(c(=O)[nH]1)C(c1ccc(O)c(O)c1)CC(=O)N2 (stereo unspecified)	/	/	-4	108
CCOc1ccc(OCC)c(NC(=O)C2COc3ccccc3O2)c1 (stereo unspecified)	87	88	/	105
NC(=O)c1cccn1Cc1ccc(F)cc1	/	/	-20	103
CCc1ccc(CN2CCc3nc(N4CCN(c5ccccc5F)CC4)ncc3C2)cc1	90	87	/	102
Cc1ccc(C(=O)c2oc3ccccc3c2NC(=O)COc2ccccc2Cl)cc1	100	91	-19	113
CCOC(=O)CNc1ccc(C(=O)O)cc1	81	88	/	101
CCC(C)n1cnc2ccccc21 (stereo unspecified)	92	96	-16	/
Cc1nc2sccn2c(=O)c1S(=O)(=O)NCCCN1CCN(c2ccccc2)CC1	76	87	-24	101
Cc1cc2c(cc1S(=O)(=O)CCC(=O)Nc1ccc(OC(F)(F)F)cc1)OCC(=O)N2	89	109	/	107
Cc1ccccc1N1CCN(c2nccn3nc(-c4ccccc4)cc23)CC1	/	/	-6	102

# (list continues)
structure	Sa growth 42C second temp	Sa growth 42C	HCMV NEC inh	GIV-Gai inh
CN(CCCN1C(=O)c2ccccc2C1=O)CCCN1C(=O)c2ccccc2C1=O	114	93	-15	93
CCc1ccccc1NC(=O)c1noc2c1CCc1ccccc1-2	92	87	/	104
COC(=O)COc1ccc(/C=C2\C(=O)NC(=S)N(c3ccc(Cl)cc3)C2=O)cc1OC	/	/	-26	102
Cc1ccc(N2C(=O)Cn3cccc3C2C(=O)NC2CCCC2)cc1 (stereo unspecified)	/	/	-37	105
NC(=O)c1ccccc1OCC(=O)N1N=C(c2cccs2)CC1c1cccs1 (stereo unspecified)	92	66	-26	/
O=C(CSc1nc2ccccc2n1-c1ccccc1)NC1CCCC1	77	80	-7	/
C=CCn1cnnc1SCC(=O)NCC(F)(F)F	97	87	-10	/
Cc1ccc2c(=O)c(C(=O)O)c[nH]c2n1	/	/	-12	106
O=C(OCCN1C(=O)c2cccc3c(N4CCOCC4)ccc(c23)C1=O)c1ccc(Br)cc1	/	/	-4	107
N/C(=N\O)c1cccc(CS(=O)(=O)c2cccs2)c1	94	94	-6	104
COc1ccc(CNC(=O)c2cc3cc(C)ccc3n2C)cc1	86	92	-41	97
CCOC(=O)C1=C(C)N=c2s/c(=C\c3cccs3)c(=O)n2C1c1ccc(OCC)c(OCC)c1 (stereo unspecified)	/	/	-5	103
CC(C)CCn1c2ccccc2c2ccccc21	85	88	-35	99
COc1ccc(Cl)cc1NC(=O)Cn1cnc2oc(C)c(C)c2c1=O	/	/	-5	101
Cc1ccc(Cl)cc1N1CCN(C(=O)CCS(=O)(=O)c2cc(Br)cc3c2N(C(=O)C2CC2)CC3)CC1	88	117	-1	101
CCC(=O)Nc1sc2c(c1C(N)=O)CCCC2	91	134	-1	/
CCc1cc2c(cc(C(=O)OC)n2Cc2nc(-c3ccc(C)cc3)oc2C)s1	94	102	-18	103
CCCS(=O)(=O)c1ncc(Cl)c(C(=O)Nc2sc3c(c2C(N)=O)CCCC3)n1	/	/	-12	99
COc1cc(-c2nnc(COc3ncnc4c(Cl)cc(Cl)cc34)o2)cc(OC)c1OC	97	105	12	/
O=C(c1cn[nH]c1C1CCNCC1)N1CCN(c2ccccc2)CC1	93	102	-2	104

# The results go on.
structure	Sa growth 42C second temp	Sa growth 42C	HCMV NEC inh	GIV-Gai inh
N#CCC(=O)c1c[nH]c2ccccc12	92	86	-2	/
Cc1nnc2c3ccccc3nc(N3CCN(c4cccc(Cl)c4)CC3)n12	88	92	/	96
O=C(C1CCCN(Cc2cccs2)C1)N1CCCCCC1 (stereo unspecified)	90	99	4	106
COc1ccc(C2CC(=O)C3=C(C2)Nc2ccccc2NC3c2cccc(C(F)(F)F)c2)cc1 (stereo unspecified)	/	/	-30	94
CS(=O)(=O)NCC(c1ccc2c(c1)OCO2)N1CCN(c2ccccc2)CC1 (stereo unspecified)	76	93	-29	101
Brc1ccc(C2C3CC=CC3c3c4c(cc5ccccc35)C3C=CCC3CN42)cc1 (stereo unspecified)	/	/	-18	109
CC(=O)Nc1ccc(NC(=O)C2CCCN(S(=O)(=O)c3cc(-c4noc(C)n4)sc3C)C2)cc1 (stereo unspecified)	/	/	-7	102
COc1cc(OC)cc(C(=O)Nc2nc(CC(=O)NCCc3ccc(OC)c(OC)c3)cs2)c1	/	/	-18	102

# Bioassay records (PubChem)
